Assay outcomes: PubChem, several laboratories
INS promoter inh: inhibitors of insulin promoter-driven GFP, primary screen, imaging, TRM-6 cells (human fetal islet line), eGFP reporter, cell count | 130,000 tested, 0.9% active | inhibition, % at 2 µM | reporter expression induced with tamoxifen;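 active = inhibition above the mean plus 3 SD, with well images judged a real hit on visual review, cut at about 60% in these data, passing the limit was not always enough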
PKD1 inh: inhibitors of human PKD1 kinase, biochemical, fluorescence polarization. Serine/threonine-protein kinase D1 (Homo sapiens), Q15139. PKD1 kinase fluorescence polarization assay. inhibition, %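 (about 10 µM by stock and volumes)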. 200,000 tested, 0.056% active;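 active = inhibition of 50% or more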;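 also: controls were vehicle for no effect and a reference inhibitor for full effect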
Target sequence (Q15139 whole entry, looked up): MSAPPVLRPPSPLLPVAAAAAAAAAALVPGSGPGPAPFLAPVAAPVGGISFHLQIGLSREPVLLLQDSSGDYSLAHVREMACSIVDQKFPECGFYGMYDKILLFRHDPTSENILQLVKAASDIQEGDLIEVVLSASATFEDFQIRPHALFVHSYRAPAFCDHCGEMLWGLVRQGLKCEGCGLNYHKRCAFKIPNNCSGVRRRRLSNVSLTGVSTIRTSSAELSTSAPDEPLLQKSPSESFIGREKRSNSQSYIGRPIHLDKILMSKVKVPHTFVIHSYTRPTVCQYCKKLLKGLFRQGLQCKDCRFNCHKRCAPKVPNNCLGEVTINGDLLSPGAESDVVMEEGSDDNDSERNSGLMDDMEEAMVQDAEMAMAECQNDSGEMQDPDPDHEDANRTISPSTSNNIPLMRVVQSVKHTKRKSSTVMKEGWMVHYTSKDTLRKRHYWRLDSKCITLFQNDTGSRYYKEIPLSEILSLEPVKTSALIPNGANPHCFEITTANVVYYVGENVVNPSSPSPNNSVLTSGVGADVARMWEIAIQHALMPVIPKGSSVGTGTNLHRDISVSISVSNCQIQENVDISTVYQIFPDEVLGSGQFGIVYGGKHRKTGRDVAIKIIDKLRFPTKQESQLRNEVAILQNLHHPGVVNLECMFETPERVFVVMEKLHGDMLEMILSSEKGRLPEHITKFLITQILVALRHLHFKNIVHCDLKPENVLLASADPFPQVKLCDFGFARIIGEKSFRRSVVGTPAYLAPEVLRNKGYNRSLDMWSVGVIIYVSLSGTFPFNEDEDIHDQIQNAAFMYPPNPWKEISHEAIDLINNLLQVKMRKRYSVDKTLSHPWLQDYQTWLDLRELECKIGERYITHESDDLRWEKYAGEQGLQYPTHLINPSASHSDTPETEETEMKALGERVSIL
RGS16-Gao: modulators of RGS16 binding to Galphao, primary screen, biochemical, human proteins, multiplexed bead flow cytometry; binding response (% of control), % at 10 µM; 220,000 tested, 0.38% active; bead-based flow cytometry RGS16-Galphao binding, fluorescence; actives lie on both sides; Regulator of G-protein signaling 16 (Homo sapiens) + Guanine nucleotide-binding protein …;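 active = below 25% or above 175%, edge rows of some plates excepted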;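 also: Galphao activated by GDP with aluminum fluoride before binding; 100% = wells without compound and 0% = beads without RGS; some results beyond the cut were filed as inactive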
GALR2 agonist: GALR2 receptor agonists, primary screen, cell-based; 140,000 tested, 0.48% active; activation, %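 (tested at 5 µM)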; GALR2-expressing cells, agonist activation read-out; Galanin receptor type 2 (Homo sapiens), O43603;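 active = above mean plus 3 SD of all compounds, about 5% in these data, not always enough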;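 also: 0% = vehicle buffer wells and 100% = reference agonist at full effect; tested in CHO reporter cells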
HSV augment: enhancers of HSV replication in host cells, fold increase, host cell viability; HSV replication augmentation in cells; 220,000 tested, 0.005% active; AID 1956, 2009; maximum fold increase;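 active = peak rise of 1.5-fold or more in the series; tested in PC3 cells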;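 also: first round at 10 µM; read as green reporter fluorescence; hits show the peak of a series up to 25 µM; 1 = signal of infected wells without compound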
INS promoter inh cell count: further read-out of INS promoter inh, marked with its call; normalized cell count, %; measured here: cell count, toxicity; reference of the scale not given here;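 cells exposed to compound for 48 h; stained nuclei by imaging scaled within each plate; lower means fewer cells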
HSV augment primary fold: second read-out of HSV augment, no call of its own (marks repeat the call); fold increase; compound at 10 µM; measured here: primary screen fold increase 10 uM; tested in PC3 cells;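 GFP signal in the first replicate; 1 = infected wells without compound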
Starred values were filed as active, the others as inactive; i = inactive; / = no result given.

SMILES | INS promoter inh | INS promoter inh cell count | PKD1 inh | RGS16-Gao | GALR2 agonist | HSV augment | HSV augment primary fold
CCOC(=O)c1cnn(-c2ccccc2)c1-n1cccc1C(=O)C(=O)Nc1ccc(F)cc1 | -7 | 117 | 6 | 99 | -2.8 | i | 0.92
O=C1NC2(CCCCC2)C(=O)N1CCN1C(=O)c2ccccc2C1=O | / | / | -4 | 102 | / | i | 0.86
COc1cc2c(cc1NS(=O)(=O)N1CCCCC1)oc1ccccc12 | -21 | 63 | -6 | 107 | -2.2 | i | 0.73
Cc1cc(C(=O)CSc2nnc(-c3cccnc3)n2-c2ccccc2F)c(C)n1CC1CCCO1 (stereo unspecified) | -91 | 43 | 1 | 97 | -1.6 | i | 0.99
CCOC(=O)/C=C/c1nc(C(=O)OCC)c(C)c(=O)[nH]1 | / | / | / | 101 | / | i | 0.86
O=C1c2ccccc2C(=O)N1/N=C/c1ccc(O)c(O)c1 | -12 | 129 | 4 | 87 | -1.7 | i | 0.98
COC(=O)C1=C(C(=O)OC)C(c2ccc(OC)c(OC)c2)c2sc(=O)[nH]c2S1 (stereo unspecified) | 36 | 85 | 3 | 103 | / | i | 0.96
O=C(CCN1C(=O)c2ccc([N+](=O)[O-])cc2C1=O)Nc1ccccc1C(=O)O | / | / | / | 95 | / | i | 0.76
CN(C)C(=O)CSc1nnc(-c2cnccn2)n1C | -50 | 169 | 0 | 63 | -1.4 | i | 0.86
CCOC(=O)N1CCN(Cc2nc(N)nc(Nc3ccc(C)cc3)n2)CC1 | -7 | 130 | -3 | 101 | -2.6 | i | 0.94
Cc1cccc(N2CC(O)(c3cccs3)[N+]3=C2CCCC3)c1C (stereo unspecified) | / | / | -14 | 96 | / | i | 0.92
COc1ccc(OC)c(Nc2nc(-c3sc(NC(=O)c4ccccc4)nc3C)cs2)c1 | 30 | 82 | -8 | 115 | -2.4 | i | 0.89
O=C(NCc1ccccn1)c1coc(=O)c(Br)c1 | -176 | 32 | -2 | 106 | -0.3 | i | 0.94
COC(=O)Nc1ccc(S(=O)(=O)N2CCCC(C(=O)NC3CCCCC3)C2)cc1 (stereo unspecified) | / | / | -12 | 102 | / | i | 0.86
O=C(CN1CCN(S(=O)(=O)c2ccccc2)CC1)Nc1cccc(C(F)(F)F)c1 | / | / | 0 | 102 | -1.2 | i | 0.82
Cc1ccccc1OC(=O)n1c(=S)oc2cc(Cl)ccc21 | 27 | 116 | -9 | 107 | -1.9 | i | 0.86
COc1ccc(CN2CCN(S(=O)(=O)c3ccccc3)CC2)c(OC)c1 | / | / | 6 | 108 | -1.6 | i | 1.1
CCCCOc1cccc(OCC(=O)Nc2nc3ccccc3[nH]2)c1 | / | / | 6 | 102 | -1.4 | i | 0.85
CCCc1cc(=O)n2[nH]c(-c3ccc(Br)cc3)cc2n1 | -11 | 109 | -9 | 107 | -2.5 | i | 0.81
Cc1cccc(CN2CCSc3sccc3C2=O)c1 | / | / | -1 | 103 | / | i | 1.1
COc1cc(/C=C\C(=O)NCc2ccc3c(c2)cc(C)n3C)cc(OC)c1OC | -7 | 111 | -10 | 82 | -2.3 | i | 0.97
C=C(C)C(=O)Nc1cccc(C2=NOC3(C2)C[C@H](C(N)=O)N(C(=O)COc2ccc(Cl)cc2)C3)c1 (stereo partly specified) | / | / | / | 104 | / | i | 0.84
CCn1c(-c2cc(-c3ccc(OC(C)C)cc3)nc3ccccc23)n[nH]c1=S | 20 | 84 | 4 | 104 | -1.7 | i | 1.1
Cc1nnc(SCC(=O)Nc2ccc3c(c2)OCO3)n(N)c1=O | / | / | -3 | 99 | / | i | 1

2 entries drawn at random from those above, as already listed:
SMILES | INS promoter inh | INS promoter inh cell count | PKD1 inh | RGS16-Gao | GALR2 agonist | HSV augment | HSV augment primary fold
CCCCOc1cccc(OCC(=O)Nc2nc3ccccc3[nH]2)c1 | / | / | 6 | 102 | -1.4 | i | 0.85
CCn1c(-c2cc(-c3ccc(OC(C)C)cc3)nc3ccccc23)n[nH]c1=S | 20 | 84 | 4 | 104 | -1.7 | i | 1.1

The list continues.
SMILES | INS promoter inh | INS promoter inh cell count | PKD1 inh | RGS16-Gao | GALR2 agonist | HSV augment | HSV augment primary fold
Nc1ncc2c(n1)-c1cc(Cl)ccc1SC2 | / | / | 8 | 93 | / | i | 1
Cc1cccc(Cn2c(C(C)O)nc3ccccc32)c1 (stereo unspecified) | 43 | 125 | -11 | 100 | 0.0 | i | 0.83
CCC(=O)N1CCc2cc(S(=O)(=O)NCCC(=O)N3CCN(Cc4ccccc4)CC3)ccc21 | -6 | 120 | -6 | 95 | -0.9 | i | 0.92
COc1cc2ncnc(NCc3ccccc3)c2cc1OC | 3 | 128 | 12 | 106 | -2.0 | i | 0.86
S=c1nc(-c2ccccc2)[nH]c2ccc(Br)cc12 | / | / | / | 102 | / | i | 0.91
C(=C\c1ccc2ccccc2n1)/c1ccccc1 | / | / | / | 105 | / | i | 1
Cc1noc(/C=C/N(C)C)c1S(=O)(=O)N1CCN(c2ccccc2)CC1 | / | / | -16 | 148 | -1.1 | i | 0.94
Cc1ccccc1N=C1NC(=O)/C(=C/c2cccn2C)S1 | / | / | / | 99 | / | i | 1.1
CCCN1C2=NCCN2c2cc(C)c(C)cc21 | -58 | 113 | 7 | 95 | -3.8 | i | 0.88
Brc1ccc(OCc2nnc(SCC3CCCCC3)o2)cc1 | 21 | 106 | 3 | 88 | -1.8 | i | 1
Cc1c(=O)n(OCc2ccc(Cl)cc2)c2ccccc2[n+]1[O-] | / | / | -7 | 98 | / | i | 1.1
O=C(COC(=O)C1CCN(S(=O)(=O)c2cc([N+](=O)[O-])ccc2Cl)CC1)Nc1ncc(Cl)cc1Cl | -22 | 235 | -5 | 99 | -1.7 | i | 0.92
Cc1sccc1/C=N/NC(=O)c1cccc2ccccc12 | 12 | 97 | 2 | 108 | -2.8 | i | 0.85
Cc1ccc(NC(=S)NNC(=O)c2c([N+](=O)[O-])c(C)nn2C)cc1 | 57 | 49 | 5 | 107 | -0.5 | i | 1.1
Nn1cnnc1SC1CCCCC1NS(=O)(=O)c1ccccc1 (stereo unspecified) | -55 | 112 | -8 | 98 | -2.3 | i | 1
CCCCn1c(=O)[nH]c(=O)c2c1nc(-c1ccc(-c3ccccc3Br)o1)n2CC | -33 | 146 | -1 | 109 | -3.1 | i | 0.88
O=C(CCl)NCCCCCCCCCNC(=O)CCl | 17 | 92 | -8 | 64 | 0.2 | i | 0.81
Cc1nc(NCc2ccco2)c2c3c(sc2n1)CCC3 | -41 | 65 | -4 | 96 | -1.7 | i | 0.98
CCOC(=O)C1CCCN(S(=O)(=O)c2ccc(OC)c3ccccc23)C1 (stereo unspecified) | -68 | 150 | -5 | 53 | -1.7 | i | 0.92
O=C(Nc1cc(=O)c2ccccc2o1)N1CCOCC1 | / | / | -4 | 93 | -2.3 | i | 0.92
COc1ccc(C(=O)Nc2nc3ccccc3s2)cc1OC | 21 | 183 | 2 | 101 | / | i | 0.87
Cc1cccc(N2CCN(C(=O)c3csc4ccccc34)CC2C)c1 (stereo unspecified) | -47 | 56 | 4 | 97 | -0.5 | i | 0.93
COc1ccc(-c2cc(C(F)(F)F)nc(S(=O)(=O)CCCC(=O)Nc3cccc(O)c3)n2)cc1OC | / | / | -1 | 100 | / | i | 0.6
CN(C)CCSc1nc(-c2ccccc2)nc2c1CCCC2 | / | / | / | 99 | / | i | 0.87

Full records, looked up by structure. Order of screens: INS promoter inh	INS promoter inh cell count	PKD1 inh	RGS16-Gao	GALR2 agonist	HSV augment	HSV augment primary fold
`CN(C)CCSc1nc(-c2ccccc2)nc2c1CCCC2` reads /	/	/	99	/	i	0.87
`Cc1ccc(NC(=S)NNC(=O)c2c([N+](=O)[O-])c(C)nn2C)cc1` reads 57	49	5	107	-0.5	i	1.1
`COc1ccc(C(=O)Nc2nc3ccccc3s2)cc1OC` reads 21	183	2	101	/	i	0.87

A second format for part of the listing above.
The line under a structure holds: INS promoter inh | INS promoter inh cell count | PKD1 inh | RGS16-Gao | GALR2 agonist | HSV augment | HSV augment primary fold
- Cc1sccc1/C=N/NC(=O)c1cccc2ccccc12
 : 12 | 97 | 2 | 108 | -2.8 | i | 0.85
- Cc1ccc(NC(=S)NNC(=O)c2c([N+](=O)[O-])c(C)nn2C)cc1
 : 57 | 49 | 5 | 107 | -0.5 | i | 1.1

The list continues:
SMILES | INS promoter inh | INS promoter inh cell count | PKD1 inh | RGS16-Gao | GALR2 agonist | HSV augment | HSV augment primary fold
CC/C(O)=C(/C#N)c1nnc2n1CCCCC2 | -31 | 200 | 5 | 102 | -0.7 | i | 0.93
CCOC(=O)C1=NNC2(c3ccccc3)C(=O)N(c3cccc(Br)c3)C(=O)C12 (stereo unspecified) | -52 | 110 | -3 | 97 | -2.3 | i | 0.92
CC(C)C1C(=O)NC(=S)N1S(=O)(=O)c1ccc(C(C)(C)C)cc1 (stereo unspecified) | -19 | 97 | -5 | 102 | -1.3 | i | 0.99
CCC(O)c1cc2c(cc1NC(=O)c1cccs1)OCCO2 (stereo unspecified) | 14 | 200 | -3 | 102 | -2.5 | i | 0.92
COc1ccc2cc(C)c3nnc(SCc4cccnc4)n3c2c1 | / | / | 5 | 99 | / | i | 1
COc1ccc(OC)c(NC=C2C(=O)OC3(CCCCC3)OC2=O)c1 | 20 | 58 | -5 | 88 | -0.5 | i | 0.85
O=C(/C=C/c1ccc(Cl)cc1Cl)NCCSc1ccccc1 | 34 | 70 | -10 | 93 | -0.6 | i | 0.96
CCCC1=Nc2cc(C(=O)NCc3ccco3)ccc2Sc2ccccc21 | -62 | 33 | 4 | 100 | -0.2 | i | 0.65
COCCCNC(=S)Nc1cccc(S(=O)(=O)NC2=NCCC2)c1 | / | / | -1 | 103 | / | i | 0.89
COc1ccccc1N1CCN(C(=O)c2cc(-c3ccc(Cl)cc3)on2)CC1 | -5 | 76 | -9 | 103 | -1.9 | i | 0.93
COc1ccc(NC(=O)c2cc3c(=O)n(C)c4ccccc4c3n2C)cc1OC | / | / | -4 | 106 | -0.1 | i | 0.87
N#C/C(=C\c1cccc([N+](=O)[O-])c1)C(=O)NCc1ccc(Cl)cc1 | / | / | -7 | 98 | / | i | 0.71
CC1CCN(S(=O)(=O)c2ccc(F)c(C(=O)O)c2)CC1 | / | / | -8 | 103 | -1.7 | i | 1
COc1cc(/C=N/Nc2nnc3c(n2)[nH]c2ccccc23)ccc1O | / | / | -9 | 167 | 0.3 | i | 1.2
Cc1c(Br)c(C(F)(F)F)nn1CC(=O)NCC1CCCO1 (stereo unspecified) | / | / | -9 | 106 | -1.4 | i | 0.77
Cc1csc(NC(=O)CSc2nc(C(C)C)nc3c2c(=O)n(C)c(=O)n3C)n1 | / | / | 0 | 135 | -2.2 | i | 0.9
C=CCSC1=C(C#N)C(c2ccccc2Cl)C(C(=O)c2cccs2)C(O)(C(F)(F)F)N1 (stereo unspecified) | -17 | 55 | -14 | 143 | -1.6 | i | 1
CCN1CCN(C(c2cccs2)C(C)NC(=O)c2ccccc2OC)CC1 (stereo unspecified) | 40 | 107 | 1 | 105 | -1.6 | i | 0.79
CCN1CCN(S(=O)(=O)c2ccc3c(c2)OCCO3)CC1 | 59 | 75 | -2 | 104 | -2.5 | i | 0.87
O=C(Nc1ccc(N2C(=O)C3C4C=CC(C4)C3C2=O)cc1Cl)c1cccs1 (stereo unspecified) | / | / | -5 | 103 | / | i | 1
CN1CCN(C(=O)c2cc3sc4ccccc4c3s2)CC1 | / | / | / | 100 | / | i | 0.88
O=c1c2sccc2n(Cc2ccc(F)cc2)c(=O)n1-c1ccc(F)cc1 | -11 | 88 | -1 | 96 | 0.0 | i | 0.85
O=S(=O)(Nc1nc(SCc2ccc(Cl)cc2)n[nH]1)c1ccccc1 | / | / | / | 104 | / | i | 0.98
O=C(c1ccco1)N1CCN(c2c([N+](=O)[O-])nn(-c3cccc(Cl)c3)[n+]2[O-])CC1 | 47 | 112 | 0 | 100 | / | i | 0.96
OC(CNCc1ccccn1)c1ccccc1 (stereo unspecified) | / | / | -11 | 101 | 1.8 | i | 0.94
CN1CCN(CC(=O)NN(Cc2ccccc2)c2ccccc2)CC1 | / | / | / | 101 | / | i | 1.2
Cn1cc(/C=C/C(=O)c2ccccc2)c2ccccc21 | / | / | / | 106 | / | i | 1
Cc1nc2cc(-c3ccccc3)nn2c(C)c1CCC(=O)N1CCN(c2ccccc2)CC1 | / | / | 4 | 103 | -1.0 | i | 0.96
CCOCCCNC(=O)C1CCC(CNS(=O)(=O)c2cccc3nsnc23)CC1 (stereo unspecified) | / | / | -2 | 105 | -0.6 | i | 0.89
Cc1ccc(CN2CCc3c(OCC(=O)Nc4cc(C)ccc4C)cccc3C2=O)cc1 | 16 | 97 | 0 | 96 | -1.3 | i | 0.92
